PAD4 inh = blocks human protein arginine deiminase 4. actives 0.41% (n = 330,000). inhibition, % at 6.36 µM. recombinant PAD4, RCA probe fluorescence polarization. AID 485272. Q9UM07;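 active = percent inhibition above a cutoff equal to the mean of all tested compounds plus 3 SD, cut at about 15% in these data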;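 also: 0% = PAD4 with RCA probe and DMSO and 100% = probe without PAD4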
LYPLA2 counter = counter-screen for PME1 inhibitors: inhibitors of human LYPLA2; O95372; recombinant LYPLA2, FP-Rh probe fluorescence polarization; inhibition, % at 5.9 µM; actives 0.38% (n = 320,000);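 active = inhibition above the screen-wide mean plus 3 SD, limit set per campaign, cut at about 26% in these data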;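 also: 0% = LYPLA2 with DMSO and 100% = wells lacking LYPLA2 enzyme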
Target sequence (O95372 whole entry, looked up): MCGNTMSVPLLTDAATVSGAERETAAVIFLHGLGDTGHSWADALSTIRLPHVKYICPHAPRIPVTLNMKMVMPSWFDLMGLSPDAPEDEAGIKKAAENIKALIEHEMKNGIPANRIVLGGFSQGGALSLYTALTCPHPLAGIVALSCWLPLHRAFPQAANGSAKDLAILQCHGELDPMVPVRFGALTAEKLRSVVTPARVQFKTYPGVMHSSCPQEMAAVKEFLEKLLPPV
LYPLA1 inh = counter-screen for PME1 inhibitors: inhibitors of human LYPLA1 | O75608 | recombinant LYPLA1, FP-Rh probe fluorescence polarization | inhibition, % at 5.9 µM | actives 0.16% (n = 320,000);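 active = inhibition above the mean of all tested compounds plus 3 SD, set per campaign, cut at about 14% in these data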;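 also: inhibitors block serine hydrolase probe labeling of LYPLA1 so polarization falls; 0% = enzyme with DMSO and 100% = wells lacking LYPLA1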
PME-1 inh = PME-1 (human) inhibition; Q9Y570; recombinant PME-1, FP-Rh probe fluorescence polarization; inhibition, % at 5.9 µM; actives 0.53% (n = 320,000); AID 2130;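 active = inhibition above the campaign mean of all compounds plus 3 SD, cut at about 26% in these data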;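 also: competitive labeling of PME-1 active site by serine hydrolase directed probe; 0% = PME-1 with DMSO and 100% = wells lacking PME-1 enzyme; inhibitors block probe labeling so polarization falls and inhibition rises; many of its hits are not listed in these tables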
PAFAH1B3 inh = inhibitors of human PAFAH1B3; actives 0.28% (n = 340,000); recombinant PAFAH1B3, FP-rhodamine probe, fluorescence polarization; inhibition, % at 3.39 µM; AID 492972; Q15102;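 active = inhibition above the screen-wide average of all tested compounds plus 3 SD, cut at about 25% in these data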;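 also: 0% = enzyme with DMSO only and 100% = wells lacking PAFAH1B3 protein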
Target sequence (Q15102 whole entry, looked up): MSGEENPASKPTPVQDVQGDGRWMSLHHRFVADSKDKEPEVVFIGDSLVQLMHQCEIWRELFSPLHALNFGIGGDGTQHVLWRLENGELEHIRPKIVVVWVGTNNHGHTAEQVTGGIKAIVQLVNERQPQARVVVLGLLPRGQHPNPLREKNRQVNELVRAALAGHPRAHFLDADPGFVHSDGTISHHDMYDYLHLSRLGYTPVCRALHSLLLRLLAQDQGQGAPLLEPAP
* = called active by the depositor; nt = not tested or not shown. Not all compounds are listed, so the mix of outcomes need not match the whole.

Start of the data: the first two compounds as a preview:
SMILES	PAD4 inh	LYPLA2 counter	LYPLA1 inh	PME-1 inh	PAFAH1B3 inh
COc1ccc(OC)c(NS(=O)(=O)c2cc(OC)ccc2OC)c1	1	2	2	2	9
CCCCCOc1ccc(N2C(=O)CC(N(O)c3ccccc3)C2=O)cc1 (stereo not given)	-4	3	1	-5	2

This part in full, from the start:
SMILES	PAD4 inh	LYPLA2 counter	LYPLA1 inh	PME-1 inh	PAFAH1B3 inh
COc1ccc(OC)c(NS(=O)(=O)c2cc(OC)ccc2OC)c1	1	2	2	2	9
CCCCCOc1ccc(N2C(=O)CC(N(O)c3ccccc3)C2=O)cc1 (stereo not given)	-4	3	1	-5	2
O=C(O)c1cccc(S(=O)(=O)N2CCSCC2)c1	-6	0	-2	-1	11
Cc1ccc(CNS(=O)(=O)c2ccc3c(c2)NC(=O)CS3)cc1	0	9	0	6	8
COC(=O)/C=C/c1oc2ccccc2c1C	-1	-2	-1	-1	-5
CCC(=O)c1ccc(OCCN2CCOCC2)cc1	2	-1	0	-3	9
O=c1cc(CN2CCN(c3ccccc3)CC2)c2c(ccc3ccccc32)o1	-1	-7	-4	-5	5
CC(=O)c1ccc(N(C(=O)c2csnn2)C(C(=O)NC2CCCC2)c2ccccc2)cc1 (stereo not given)	0	3	2	-1	-6
COCCn1nnnc1C(c1cc2c(C)cc(C)cc2[nH]c1=O)N1CCCCCC1 (stereo not given)	-7	-1	1	2	4
COc1ccccc1N1CCN(C(=O)c2ccc3c(c2)CCN3S(C)(=O)=O)CC1	-2	5	-3	-6	2
CC(C)Oc1ccc(-c2nc(NCC3CCCO3)c3ccccc3n2)cc1 (stereo not given)	-3	-4	-6	-2	-16
CC(NC(=O)c1cc(-c2ccccc2)on1)c1ccccc1 (stereo not given)	-1	-1	-2	-2	6
C=CCn1c(CNC(=O)c2ccccc2F)nnc1SCc1nc2ccccc2c(=O)[nH]1	-5	1	-5	-4	2
CC(=O)Nc1ccc(NC(=O)CSc2nnc(-c3cccs3)n2C)cc1	-8	-1	-3	3	3
Oc1ccc(N2CCN(C(c3ccncc3)c3nnnn3C3CCCC3)CC2)cc1 (stereo not given)	1	0	0	3	-3
O=C(O)/C=C/C(=O)Nc1cc(F)ccc1F	2	-2	-3	-5	4
NS(=O)(=O)c1ccc(NC(=O)c2ccc3c(c2)CCCC3)cc1	4	-4	-4	0	2
Cn1c(SCc2cccc(F)c2)nnc1-c1ccncc1	-4	-2	-1	1	0
CC(=O)c1ccc(NS(=O)(=O)c2cccc(C(=O)Nc3ccccc3C(=O)O)c2)cc1	-3	-7	-4	-5	11
CCCCCC(=O)Nc1cccc(S(=O)(=O)NC2=NCCC2)c1	-5	1	-1	1	10

Reprinted from the results shown, 16 compounds:
SMILES	PAD4 inh	LYPLA2 counter	LYPLA1 inh	PME-1 inh	PAFAH1B3 inh
COC(=O)/C=C/c1oc2ccccc2c1C	-1	-2	-1	-1	-5
CCC(=O)c1ccc(OCCN2CCOCC2)cc1	2	-1	0	-3	9
O=c1cc(CN2CCN(c3ccccc3)CC2)c2c(ccc3ccccc32)o1	-1	-7	-4	-5	5
CC(=O)c1ccc(N(C(=O)c2csnn2)C(C(=O)NC2CCCC2)c2ccccc2)cc1 (stereo not given)	0	3	2	-1	-6
COCCn1nnnc1C(c1cc2c(C)cc(C)cc2[nH]c1=O)N1CCCCCC1 (stereo not given)	-7	-1	1	2	4
COc1ccccc1N1CCN(C(=O)c2ccc3c(c2)CCN3S(C)(=O)=O)CC1	-2	5	-3	-6	2
CC(C)Oc1ccc(-c2nc(NCC3CCCO3)c3ccccc3n2)cc1 (stereo not given)	-3	-4	-6	-2	-16
CC(NC(=O)c1cc(-c2ccccc2)on1)c1ccccc1 (stereo not given)	-1	-1	-2	-2	6
C=CCn1c(CNC(=O)c2ccccc2F)nnc1SCc1nc2ccccc2c(=O)[nH]1	-5	1	-5	-4	2
CC(=O)Nc1ccc(NC(=O)CSc2nnc(-c3cccs3)n2C)cc1	-8	-1	-3	3	3
Oc1ccc(N2CCN(C(c3ccncc3)c3nnnn3C3CCCC3)CC2)cc1 (stereo not given)	1	0	0	3	-3
O=C(O)/C=C/C(=O)Nc1cc(F)ccc1F	2	-2	-3	-5	4
NS(=O)(=O)c1ccc(NC(=O)c2ccc3c(c2)CCCC3)cc1	4	-4	-4	0	2
Cn1c(SCc2cccc(F)c2)nnc1-c1ccncc1	-4	-2	-1	1	0
CC(=O)c1ccc(NS(=O)(=O)c2cccc(C(=O)Nc3ccccc3C(=O)O)c2)cc1	-3	-7	-4	-5	11
CCCCCC(=O)Nc1cccc(S(=O)(=O)NC2=NCCC2)c1	-5	1	-1	1	10

Later entries.
SMILES	PAD4 inh	LYPLA2 counter	LYPLA1 inh	PME-1 inh	PAFAH1B3 inh
Cn1c(=O)c2c(ncn2Cc2ccc(Cl)c(Cl)c2)n(C)c1=O	-4	10	0	6	-3
COc1cc(C(=O)NCCc2c[nH]c3ccccc23)ccc1OCc1c(C)noc1C	2	2	-1	-2	5
CCOC(=O)N1CCN(C(=O)Nc2ccc3nc(C)c(C)nc3c2)CC1	-4	-1	0	-1	-4
COC(=O)C1=C(C)NC(=O)NC1c1cc(Cl)ccc1OC (stereo not given)	-2	-4	2	7	9
CCCC(C(=O)NC1CCCC1)N(CCCN1CCOCC1)C(=O)c1snc(C(N)=O)c1N (stereo not given)	-3	-5	0	10	9
Cc1ccsc1C1NC(=O)c2ccccc2N1 (stereo not given)	2	0	1	-6	6
COC(=O)c1cc2ccsc2n1Cc1cccc(F)c1	5	3	-1	2	4
S=c1[nH]nc(-c2cccnc2)n1/N=C/c1cccs1	4	-5	-2	1	-8
C=CCSc1nnc(NC(=O)c2ccc(S(=O)(=O)NCC3CCCO3)cc2)s1 (stereo not given)	-1	5	-1	-3	-4
Cc1ccc2cc(C)c(N3CCN(c4ccccn4)CC3)nc2c1	-6	0	-2	0	-4
COc1cccc(-c2csc(NNC(=O)c3cccs3)n2)c1	-1	11	-4	4	nt
COc1ccc(NC(=O)c2sc3nc(-c4cccnc4)ccc3c2N)cc1	1	7	3	7	6
Cc1ccc(-c2cnc(NC(=O)CCC(=O)N(C)Cc3ccccc3)n2C)cc1	1	4	0	0	5
COc1ccccc1CC(=O)Nc1ccc([N+](=O)[O-])cc1OC	-8	-6	1	-1	2
CCCCNC(=O)CCC(=O)Nc1ncc(-c2ccc(C)cc2)n1C	-6	-4	-3	-4	3
COc1cc(/C=N/NC(=O)CC2(C)OCCCO2)ccc1OCc1ccc(Cl)cc1Cl	-4	2	-4	-9	-2
Cn1c(SCCOc2ccccc2Cl)nnc1-c1ccncc1	2	0	0	2	9
Cc1cc(-c2nn3c(C)nnc3s2)ccc1NC(=O)C(C)(C)C	-1	0	-2	-5	5
COCC(C)Nc1ncnc2c1cnn2-c1ccc(Cl)cc1 (stereo not given)	-1	1	-4	-7	6
O=C(CSc1nnc2c3c4c(sc3ncn12)CCCC4)NCc1ccco1	-5	8	-1	4	1
Cn1c(-c2ccc3c(c2)OCO3)cnc1NCc1ccc(Cl)cc1	-4	4	0	2	1
Cn1ncc2nnn(-c3ccccc3)c(=O)c21	-2	1	3	-2	4
CCOc1ccccc1OCC(=O)Nc1cccc(S(=O)(=O)NC2=NCCCCC2)c1	-1	0	-2	7	6
CCOC(=O)N1CCN(Cc2cc(=O)oc3ccc(Cl)cc23)CC1	-5	2	1	2	4
CCSc1nc2sc3c(c2c2nnc(SCC(=O)NCc4ccco4)n12)CCCC3	-4	-4	-7	-6	nt
CCc1c(O)cc(=O)n(-c2ccccc2)c1-c1ccccc1	-2	6	7	1	6
